# HEK cytotox: Cytotoxic Profiling in HEK 293 Cell Line of Diverse Libraries Using Quantitative High-Throughput Screening | HEK 293 viability, ATP luminescence (CellTiter-Glo), 48-72 h | Potency, µM (top dose mostly 115 µM), without a hit: at the top dose activity change, negative = cytotoxicity, usual class: inhibitors | 94,000 compounds, 6.6% hits | AID 1345083, 2018; further: nearly all actives have a fitted effect of over 60% in size
#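 Pintool-delivered compounds were incubated with HEK 293 cells (250 cells/well) at 37 degree Celsius for 48 or 72 hr. ATP-dependent luminescence (CellTiter-Glo) then reported remaining viable cells.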
# SNCA expr inhib: Primary qHTS assay for inhibitors of alpha-synuclein gene (SNCA) expression; HEK-293 SNCA-luciferase knock-in, luminescence, 24 h; 140,000 compounds, 0.17% hits; Potency, µM (top dose mostly 57.2 µM), for the others: at the highest dose activity change, negative = inhibition, usual class: inhibitors; AID 1671194, 2021;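 further: plate controls were DMSO cells for no effect and cell-free wells for full effect; nearly all actives have a fitted effect of over 45% in size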
# GPT2 inhibitor: Primary qHTS assay for inhibitors of Glutamate pyruvate transaminase 2 (GPT2); 100,000 compounds, 0.25% hits; Potency, µM (doses to about 57.7 µM), inactives show at the top dose activity change, negative = inhibition, hits mostly inhibitors; Recombinant GPT2, coupled pyruvate oxidase/HRP Amplex Red fluorescence; further: nearly all actives have a fitted effect of over 60% in size; many of its hits are not listed in these tables
# Target sequence (Q8TD30 whole entry, looked up): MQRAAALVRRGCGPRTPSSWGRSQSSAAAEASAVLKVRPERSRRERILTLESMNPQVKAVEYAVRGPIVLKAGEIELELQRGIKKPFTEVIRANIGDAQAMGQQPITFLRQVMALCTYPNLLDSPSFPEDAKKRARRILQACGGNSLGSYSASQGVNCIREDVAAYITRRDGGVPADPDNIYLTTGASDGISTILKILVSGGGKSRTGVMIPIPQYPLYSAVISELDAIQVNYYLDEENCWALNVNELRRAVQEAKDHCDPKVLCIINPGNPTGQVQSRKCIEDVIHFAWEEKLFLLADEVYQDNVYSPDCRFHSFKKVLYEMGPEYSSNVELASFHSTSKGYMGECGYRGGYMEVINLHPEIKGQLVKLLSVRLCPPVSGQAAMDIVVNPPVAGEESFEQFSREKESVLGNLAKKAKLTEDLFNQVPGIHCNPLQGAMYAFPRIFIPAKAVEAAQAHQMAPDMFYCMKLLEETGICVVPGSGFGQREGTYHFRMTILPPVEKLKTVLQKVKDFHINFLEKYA
#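 GPT2 10ng/uL, a-KG 250uM, L-Ala 2mM, HEPES pH7.5 + 0.0001% Tween; 30 min RT. Then Amplex mix (PO/HRP/ThPP), 30 min RT dark, fluorescence. AOA 50uM used as positive control.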
# 3T3 cytotox: Cytotoxic Profiling in NIH 3T3 Cell Line of Diverse Libraries Using Quantitative High-Throughput Screening | NIH 3T3 viability, CellTiter-Glo ATP luminescence, 48-72 h | 94,000 compounds, 4.3% hits | Potency, µM (top dose mostly 96.7 µM), for the others: at the top dose activity change, negative = cytotoxicity, usual class: inhibitors; further: nearly all actives have a fitted effect of over 55% in size
#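 First NIH 3T3 cells are plated at 400 cells/well; next compound is pinned in; then plates incubate 48 or 72 hr at 37 °C; finally CellTiter-Glo is added and luminescence read after 10 min.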
# SNCA viab count: GF-AFC viability counterscreen for inhibitors of alpha-synuclein gene (SNCA) expression. 150,000 compounds, 0.12% hits. Potency, µM (top dose mostly 57.1 µM), for inactives: top-dose activity change, negative = cytotoxicity, actives largely listed as cytotoxic. AID 1671193, 2021. HEK-293-SNCA-luc viability, GF-AFC fluorescence, 24 h;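 further: 0% = DMSO-treated cells and -100% = medium-only wells without cells; nearly all actives have a fitted effect of over 30% in size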
#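 HEK-293-SNCA-luc cells (1500/well) plated 24 h, then exposed 24 h to a dilution series; GF-AFC added 30 min at 37C, fluorescence 405/540 nm; normalised to medium-only and DMSO wells, Hill fit.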
# FLuc inh: Firefly luciferase inhibition profiling of diverse chemical library using quantitative high-throughput screening; Potency, µM (highest dose often 115 µM), for inactives: at the top dose activity change, negative = inhibition, usual class: inhibitors; purified P. pyralis luciferase, luminescence, biochemical; 76,000 compounds, 2.5% hits; Luciferin 4-monooxygenase (Photinus pyralis), P08659; further: nearly all actives have a fitted effect of over 65% in size
# Target sequence (P08659 whole entry, looked up): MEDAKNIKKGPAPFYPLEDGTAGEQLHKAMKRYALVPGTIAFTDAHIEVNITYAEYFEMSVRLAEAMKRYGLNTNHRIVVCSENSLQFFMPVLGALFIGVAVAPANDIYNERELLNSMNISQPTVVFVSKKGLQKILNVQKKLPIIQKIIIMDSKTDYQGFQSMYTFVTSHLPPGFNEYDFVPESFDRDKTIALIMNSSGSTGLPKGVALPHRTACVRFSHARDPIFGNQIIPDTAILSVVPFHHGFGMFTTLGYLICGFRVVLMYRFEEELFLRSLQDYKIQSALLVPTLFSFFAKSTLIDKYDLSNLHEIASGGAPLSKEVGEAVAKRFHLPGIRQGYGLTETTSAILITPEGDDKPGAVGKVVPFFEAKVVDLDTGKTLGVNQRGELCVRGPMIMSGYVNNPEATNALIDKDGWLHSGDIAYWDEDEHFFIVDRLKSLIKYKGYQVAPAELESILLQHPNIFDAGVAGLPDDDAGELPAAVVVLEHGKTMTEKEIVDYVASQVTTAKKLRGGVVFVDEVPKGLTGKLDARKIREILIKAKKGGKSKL
#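 Inhibitors were tested against purified firefly luciferase in a biochemical, low-substrate format (both substrates at 10uM) and luminescence measured with a CCD imager.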
# Numbers without * were called inactive; i = inactive; ? = inconclusive; nt = not tested or not shown; [ ] = remark or other dose. The call rests on the fitted dose curve; in most records, active means well fitted curve in the direction sought with a large enough effect; inconclusive means small, poorly fitted or top-dose-only effect, or another doubt; inactive means no such curve, though single readings can be large; an effect the other way counts as inactive or inconclusive. Unless noted, on the % scale 0 is the no-effect control and ±100 the full control effect; potency means the concentration at half of the fitted maximal effect. The list is partial, so the mix of outcomes need not match the whole.
molecule | 3T3 cytotox | SNCA viab count | HEK cytotox | GPT2 inhibitor | SNCA expr inhib | FLuc inh
COC[C@@H]1CN(C(=O)CC(C)C)C[C@H]1c1nc(C)no1 | -5% | 0% | ? | 2% | 2% | -2%
COc1ccc(C(=O)NCC(c2ccc3c(c2)OCO3)N2CCN(C)CC2)cc1 (stereo not given) | nt | ? | nt | nt | -6% | nt
O=C(O)C1=NOC2CN(C(=O)C3CCCC3)CC12 (stereo not given) | -18%[138 µM] | 6%[87.6 µM] | -10%[172 µM] | i | 12%[87.6 µM] | nt
Cc1ccsc1-c1[nH]nc2ncc(-c3cccc(O)c3)nc12 | ? | -21%[87.6 µM] | ? | 0%[88.5 µM] | 12%[87.6 µM] | ?
COC(=O)c1c(NC(=O)COc2cc(C)ccc2C(C)C)sc2c1CCC(C)C2 (stereo not given) | nt | 3% | nt | nt | 9% | nt
O=C(NC1CCCC1)N1CCC(Oc2ccc(-c3noc(C4CC4)n3)cc2)C1 (stereo not given) | ? | -3% | ? | i | 18% | ?
CN1CCOc2c(C(=O)NCCN3CCNC3=O)cc(-c3ccc(O)c(F)c3)cc21 | ? | -2%[87.6 µM] | -20%[172 µM] | ? | 3%[87.6 µM] | 9%[172 µM]
COc1ccc(CCNC(=O)C(C)n2c(=O)cc(-c3ccccc3)c3c(C)nn(C)c32)cc1OC (stereo not given) | nt | -14% | nt | nt | 6% | nt
COc1ccc(C(=O)CN2CCN(S(=O)(=O)c3ccc(C(C)C)cc3)CC2)cc1 | nt | 2% | nt | nt | 27% | nt
CCOc1ccc(NC(=O)CSc2oc(-c3ccccc3)nc2S(=O)(=O)c2ccc(Cl)cc2)cc1 | nt | 7% | nt | nt | -6% | nt
COc1ccc(CN2C(=O)N(c3ccc(C)cc3)C(=O)C2CC(=O)Nc2ccccc2)cc1OC (stereo not given) | nt | 0% | nt | nt | 29% | nt
Cc1cccc(CSc2ccc(-c3cccs3)nn2)c1 | nt | -3% | nt | nt | 97%[activator] | nt
Cc1nn(C)cc1C(=O)NCCn1c(C)cnc1C1CCC1 | i | -6% | -9% | 0% | -8% | 6%
Cc1ccc(S(=O)(=O)c2nc(-c3ccc(F)cc3)oc2SCC(=O)c2ccccc2)cc1 | nt | -7% | nt | nt | 5% | nt
COc1ccccc1N1CCN(C(CNC(=O)C(=O)NCc2ccc(F)cc2)c2cccnc2)CC1 (stereo not given) | nt | 4% | nt | nt | -22% | nt

# Some of the entries so far, with two lines to a compound:
# Fields: 3T3 cytotox, SNCA viab count, HEK cytotox, GPT2 inhibitor, SNCA expr inhib, FLuc inh
- CCOc1ccc(NC(=O)CSc2oc(-c3ccccc3)nc2S(=O)(=O)c2ccc(Cl)cc2)cc1
→ nt, 7%, nt, nt, -6%, nt
- COc1ccc(CN2C(=O)N(c3ccc(C)cc3)C(=O)C2CC(=O)Nc2ccccc2)cc1OC (stereo not given)
→ nt, 0%, nt, nt, 29%, nt
- Cc1cccc(CSc2ccc(-c3cccs3)nn2)c1
→ nt, -3%, nt, nt, 97%[activator], nt
- Cc1nn(C)cc1C(=O)NCCn1c(C)cnc1C1CCC1
→ i, -6%, -9%, 0%, -8%, 6%

# Next compounds:
molecule | 3T3 cytotox | SNCA viab count | HEK cytotox | GPT2 inhibitor | SNCA expr inhib | FLuc inh
COC[C@@H]1CN(C(=O)COc2cccc(C)c2)C[C@H]1c1nc(C)no1 | -31% | ? | ? | 1% | 1% | -10%
CCOc1ccc(CC(=O)N2C[C@@H](CO)[C@H](c3nc(C)no3)C2)cc1 | -10% | -1% | 1% | i | -11% | 0%
COc1cccc([S+](=O)([O-])N2CCC(N3CCCOC3=O)CC2)c1 | i | 10% | 1% | -1% | 11% | nt
O=C(NCc1cccnc1)c1nc(-c2ccc(Cl)cc2Cl)c2ccccn12 | ? | -13% | ? | -4% | 4% | nt
CCOc1ccc(NC(=O)CSc2oc(-c3ccc(F)cc3)nc2S(=O)(=O)c2ccc(C)cc2)cc1 | nt | -8% | nt | nt | ? | nt
CN1CCN(Cc2ccc(Nc3ncc(-c4cncnc4)c4c3OCC4)cc2)CC1 | ? | 12%[87.6 µM] | ? | i | -12%[87.6 µM] | 3%[172 µM]
CNC(=O)c1cccc(-c2cnc(Nc3ccc4c(c3)OCCO4)c3c2CCO3)c1 | ? | -22%[87.6 µM] | 79µM* | i | 101%[activator][87.6 µM] | 5.6µM*
COc1ccc(-c2[nH]nc3ncc(-c4cccc(N(C)C)c4)nc23)c(C)c1 | ? | -14%[87.6 µM] | ? | -5%[88.5 µM] | 3%[87.6 µM] | 4%[172 µM]
O=C(C1=NOC2CN(C(=O)C3CC3)CC12)N1CCOCC1 (stereo not given) | i | -2%[87.6 µM] | i | -8%[88.5 µM] | -4%[87.6 µM] | nt
O=C(c1nc(-c2ccsc2)c2cnccn12)N1CCOCC1 | -23%[138 µM] | -1%[87.6 µM] | ? | i | 3%[87.6 µM] | -8%[172 µM]
COc1ccc(F)cc1S(=O)(=O)Nc1ccc2c(c1)CCCN2C(=O)c1cccs1 | nt | -6% | nt | nt | -19% | nt
CCOc1ccc(CN2CCN(S(=O)(=O)c3ccc(Cl)cc3)CC2)cc1 | nt | -4% | nt | nt | -3% | nt
COc1ccc(NC(=O)c2cc3c(=O)n(Cc4cccs4)ccc3nc2C)c(OC)c1 | nt | 0% | nt | nt | -8% | nt
CCOc1ccc(NC(=O)Cn2nc(SC)c(S(=O)(=O)c3ccccc3)c2N)cc1 | nt | 2% | nt | nt | ? | nt
Cc1ccc(NC(=O)CN(C)S(=O)(=O)c2ccc3c(c2)CCC(=O)N3)c(C)c1 | nt | -26% | nt | nt | -2% | nt
COc1ccc(CCNC(=O)C2CC(=O)N(CCc3ccccc3)C2)cc1OC (stereo not given) | nt | 8% | nt | nt | -12% | nt
CSc1nn(Cc2ccc(C)cc2)c(N)c1S(=O)(=O)c1ccccc1 | nt | -5% | nt | nt | ? | nt
CC(C)Cn1c(=O)c2ccccc2n2c(CCC(=O)N3CCN(c4ccccc4F)CC3)nnc12 | nt | -3% | nt | nt | -18% | nt
COC(=O)c1ccc(NC(=O)CN(C)S(=O)(=O)c2ccc3c(c2)CCCC(=O)N3)cc1 | nt | -10% | nt | nt | 12% | nt
CC(=O)c1cccc(Nc2ncnc3c2cnn3-c2cccc(Cl)c2)c1 | nt | 0% | nt | nt | -11% | nt
COc1ccc(-n2nc3n(c2=O)CCN([S+](=O)([O-])c2c(C)noc2C)C3)cc1 | ? | -2% | -12% | 3% | -11% | nt
CCOC(=O)c1cccc(NC(=O)c2cc3c(=O)n(Cc4cccnc4)ccc3nc2C)c1 | nt | 5% | nt | nt | 33%[activator] | nt
COc1ccc(NC(=O)c2cc3c(=O)n(Cc4cccs4)ccc3nc2C)cc1 | nt | -10% | nt | nt | 3% | nt
Cn1c(CNC(=O)c2cccc(C3CCNC3)c2)nc2ccccc21 (stereo not given) | ? | ? | -21% | -7% | 15% | 3%
Cc1ccc(-n2c(SCc3ccccc3C)nc3[nH]ncc3c2=O)cc1C | nt | 0% | nt | nt | -9% | nt
CC(=O)N1CCCN(C(=O)c2cnc3c(c2)N(Cc2ccccc2)CCC3)CC1 | ? | 0%[87.6 µM] | -6%[172 µM] | -22%[88.5 µM] | -16%[87.6 µM] | 12%[172 µM]
COc1ccc(-c2noc(-c3cccnc3NCc3ccco3)n2)cc1 | nt | 10% | nt | nt | 138%[activator] | nt
COC[C@@H]1CN(C(=O)COc2ccc(F)cc2)C[C@H]1c1nc(C)no1 | -6% | 1% | -11% | i | -6% | 1%
CN1CCN(C(=O)C(=O)Nc2c3c(nn2-c2ccc(F)cc2)CSC3)CC1 | nt | 17% | nt | nt | 8% | nt
Cc1ccc(NC(=O)C(=O)NCC2(c3ccccc3)CCCC2)cc1Cl | nt | 1% | nt | nt | 28% | nt
Cc1ccc(N2C(=O)C(CC(=O)Nc3ccc(F)cc3)N(CCC3=CCCCC3)C2=O)cc1 (stereo not given) | nt | -21% | nt | nt | ? | nt
Cc1cc(C)n(CCC(=O)N2C[C@@H](CO)[C@H](c3nc(C)no3)C2)n1 | 1% | 0% | 3% | -12% | -13% | -11%
CCc1ccc(NC(=O)C(=O)NCC(c2ccc3c(c2)OCO3)N2CCN(C)CC2)cc1 (stereo not given) | nt | 0% | nt | nt | 1% | nt
COc1cccc(NC(=O)c2sc(-n3nc(C)c(Cc4ccccc4Cl)c3C)nc2C)c1 | nt | -4% | nt | nt | 23% | nt
Cc1cc(C)c(NC(=O)CN(C)S(=O)(=O)c2ccc3c(c2)CCC(=O)N3)c(C)c1 | nt | 9% | nt | nt | 17% | nt
CCc1cccc(NC(=O)N2CCC(c3noc(COc4ccc(F)cc4)n3)CC2)c1 | -20% | -2% | ? | i | 13% | 4%
O=C(O)c1cccc(-c2cnc3ccccc3c2)c1 | -14%[138 µM] | -1%[87.6 µM] | -12%[172 µM] | -5%[88.5 µM] | 53%[activator][87.6 µM] | nt
COc1cccc([S+](=O)([O-])N2CCC3(CC2)NC(=O)c2ccccc2O3)c1 | ? | -7% | 40µM* | -10% | -8% | -4%
O=C(Nc1ccc2c(c1)CCCN2C(=O)c1cccs1)c1ccccc1 | nt | -29% | nt | nt | 48%[activator] | nt
CC(=O)Nc1ccc(NC(=O)c2cc3c(=O)n(Cc4cccnc4)ccc3nc2C)cc1 | nt | 1% | nt | nt | 36%[activator] | nt
Cc1nc(-n2nc(C)c(Cc3ccc4c(c3)OCO4)c2C)sc1C(=O)Nc1cccc(Cl)c1 | nt | 6% | nt | nt | 0% | nt
O=C(c1nc(-c2ccc(Cl)cc2)c2ccccn12)N1CCOCC1 | ? | 10%[87.6 µM] | 112µM* | -5%[88.5 µM] | 10%[87.6 µM] | -13%[172 µM]
O=C(Nc1ccccc1)O[C@@H]1CO[C@H]2[C@@H]1OC[C@@H]2n1nnnc1SCc1ccco1 | -24%[174 µM] | -6%[87.6 µM] | ? | 2%[88.5 µM] | 9%[87.6 µM] | -18%[172 µM]
COc1cccc([S+](=O)([O-])N2CCC(N3CCNC3=O)CC2)c1 | i | 6% | 0% | i | -9% | nt
Cc1nn(C)c2c1c(-c1ccccc1)cc(=O)n2C(C)C(=O)NCc1ccc(F)cc1 (stereo not given) | nt | 0% | nt | nt | -2% | nt
COc1ccc(C2NC(=O)N(C)C3=C2C(=O)N(c2ccc(F)cc2)C3)cc1 (stereo not given) | nt | ? | nt | nt | 9% | nt
O=C(NCCO)C(=O)Nc1c2c(nn1-c1ccc(F)cc1)CSC2 | nt | 17% | nt | nt | 36%[activator] | nt
O=C(c1nc(-c2ccc(Cl)nc2)c2cnccn12)N1CCCC1 | -7% | -1% | i | -8% | 68%[activator] | nt
Cc1nn2c(-c3ccco3)ccnc2c1-c1ccc(Br)cc1 | nt | 3% | nt | nt | 8% | nt
N#Cc1cccc(Nc2ncnc3c2cnn3-c2cccc(Cl)c2)c1 | nt | -2% | nt | nt | 110%[activator] | nt
Cn1cc(-c2cc(-c3ccncc3)c3cncn3c2)cn1 | 40µM* | 6%[87.6 µM] | ? | ? | -22%[87.6 µM] | 0%[230 µM]
O=C(CSc1oc(-c2ccccc2)nc1S(=O)(=O)c1ccc(Cl)cc1)c1ccccc1 | nt | -22% | nt | nt | 15% | nt
COc1ccc(NC(=O)C2=CC(c3ccc4c(c3)OCO4)=NS(=O)(=O)N2C)cc1 | nt | -1% | nt | nt | 40%[activator] | nt

# Screens (PubChem)
